NS1 function inh: qHTS Assay for Inhibitors of Influenza NS1 Protein Function; AID 2326, 2010; Potency, µM (series often up to 46.1 µM), for inactives: at the highest dose activity, positive = more growth; S. cerevisiae slowed by influenza A NS1, growth recovery by OD600; hit rate 0.4% among 270,000; active means well fitted rising curve with a large enough effect; inconclusive means small, poorly fitted or top-dose-only effect; inactive means no such curve, though single readings can be large or run the other way; further: nearly all actives have a fitted effect of over 50% in size
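In this qHTS, NS1 from influenza A is expressed in budding yeast, where it slows growth. Cells are switched from glucose to 2% galactose medium (pH 6.0, -URA), treated with compound, and growth recovery is read at OD600.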
Lassa entry inh: qHTS for Inhibitors of binding or entry into cells for Lassa Virus; AID 540256, 2011; hit rate 1.2% among 300,000; Potency, µM (doses to about 37.9 µM), without a hit: at the highest dose activity change, negative = inhibition, actives largely listed as inhibitors; Lassa virus pseudotype entry inhibition, cell reporter; control for the full effect not named in the record; active means well fitted inhibition curve with a large enough effect; inconclusive means small, poorly fitted or top-dose-only effect, or effect the other way; inactive means flat fitted curve, though single readings scatter; tested in HEK293 cells; further: on the % scale 0 is the no-effect control and ±100 the full control effect; nearly all actives have a fitted effect of over 50% in size; luciferase read-out
Cruzain inh noDet: qHTS Assay for Promiscuous and Specific Inhibitors of Cruzain (without detergent). Cruzipain (Trypanosoma cruzi), P25779. purified cruzain, Z-FR-AMC fluorescence, no detergent. Potency, µM, without a hit: max response, negative = inhibition, hits mostly inhibitors. hit rate 2.3% among 200,000. AID 1476, 2009;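 further: plate controls were enzyme without inhibitor for no effect and buffer without enzyme for full effect; nearly all actives have a fitted effect of over 40% in size; top concentration of the series not given in the record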
Target sequence (P25779 123-467 limits assumed): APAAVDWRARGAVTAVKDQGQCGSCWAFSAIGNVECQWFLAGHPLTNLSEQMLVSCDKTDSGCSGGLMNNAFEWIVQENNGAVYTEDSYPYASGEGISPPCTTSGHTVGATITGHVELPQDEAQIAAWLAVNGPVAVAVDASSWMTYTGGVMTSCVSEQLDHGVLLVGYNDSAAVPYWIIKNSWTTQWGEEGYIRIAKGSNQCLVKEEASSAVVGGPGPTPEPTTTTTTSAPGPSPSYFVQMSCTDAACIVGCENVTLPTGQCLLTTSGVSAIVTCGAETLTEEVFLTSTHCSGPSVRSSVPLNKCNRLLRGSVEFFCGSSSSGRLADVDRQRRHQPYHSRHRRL
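Detergent-free condition (0.00005% Triton X-100) in acetate buffer pH 5.5 with DTT. 1.5 nM enzyme and compound were pre-mixed 15 min, then 2 uM Z-FR-AMC substrate added; reaction progress from fluorescence change between first and third reads (60 s).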
Cruzain Triton: qHTS Assay for Promiscuous and Specific Inhibitors of Cruzain (with detergent) | purified cruzain, Z-FR-AMC fluorescence, 0.01% Triton | Potency, µM, for inactives: max response, negative = inhibition, hits mostly inhibitors | hit rate 0.43% among 200,000 | AID 1478, 2009;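 further: plate controls were neutral wells for no effect and buffer without enzyme for full effect; nearly all actives have a fitted effect of over 40% in size; top concentration of the series not given in the record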
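Z-FR-AMC hydrolysis (2 uM substrate) by cruzain (1.5 nM) monitored kinetically at ex 360/em 450 nm after 15 min room-temperature compound exposure; 0.01% Triton X-100, pH 5.5, 5 mM DTT.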
2A StopGo: High Throughput Screening for Foot and Mouth Disease Virus Antivirals. human cells with a luciferase reporter of 2A StopGo recoding; control for the full effect not named in the record. Potency, µM (series often up to 57.9 µM), for the others: at the highest dose signal change, negative = less light. hit rate 1.2% among 410,000; active = well fitted falling curve with a large enough effect; inconclusive = small, poorly fitted or top-dose-only effect; inactive = no such curve, though single readings can be large or run the other way; tested in HEK293T cells; further: on the % scale 0 is the no-effect control and ±100 the full control effect; nearly all actives have a fitted effect of over 45% in size; luciferase light after 4 h
RE007 growth inh: qHTS Assay for Inhibitors of the HIV-1 protein Vpr; S. pombe RE007 Vpr strain, BacTiter-Glo ATP luminescence, 24 h; control for the full effect not named in the record; hit rate 0.21% among 360,000; AID 651644, 2012; Potency, µM (highest dose often 92.2 µM), for inactives: at the highest dose activity change, negative = less growth; active = well fitted falling curve with a large enough effect; inconclusive = small, poorly fitted or top-dose-only effect; inactive = no such curve, though single readings can be large or run the other way;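 further: on the % scale 0 is the no-effect control and ±100 the full control effect; nearly all actives have a fitted effect of over 50% in size; the assay follows cell death caused by Vpr and the record does not say whether a fall means rescue or toxicity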
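Fission yeast strain RE007, carrying one chromosomally integrated HIV-1 vpr copy, was seeded at OD 0.01 in PMG+AL medium with 23 nL pinned compound. After 24 h at 30 °C and 99% humidity, viability was read by BacTiter-Glo luminescence.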
SARS PLP yeast: qHTS of Yeast-based Assay for SARS-CoV PLP | S. cerevisiae expressing SARS-CoV PLpro, growth rescue; control for the full effect not named in the record | Potency, µM (top dose mostly 32.9 µM), for inactives: top-dose activity, positive = growth rescue | hit rate 0.19% among 330,000; active means well fitted rising curve with a large enough effect; inconclusive means small, poorly fitted or top-dose-only effect; inactive means no such curve, though single readings can be large or run the other way; further: 0% is about no effect; nearly all actives have a fitted effect of over 55% in size; growth read by luminescence after 48 h
MARV entry inh: qHTS for inhibitors of binding or entry into cells for Marburg Virus | AID 540276, 2011 | Potency, µM (top dose mostly 37.8 µM), for inactives: at the highest dose activity change, negative = inhibition, usual class: inhibitors | Marburg virus pseudotyped entry inhibition, cell reporter; control for the full effect not named in the record; about a third of the inactives were read at about 46 µM | hit rate 1.8% among 300,000; active = well fitted inhibition curve with a large enough effect; inconclusive = small, poorly fitted or top-dose-only effect, or effect the other way; inactive = flat fitted curve, though single readings scatter; tested in HEK293 cells; about a fifth of its hits are not listed in these tables; further: on the % scale 0 is the no-effect control and ±100 the full control effect; luciferase read-out
Numbers without * were called inactive; ? = inconclusive; / = no result given; & = joins results of further samples; [ ] = another dose, or the depositor's remark. Unless noted, the call rests on the fitted dose curve; in most records, active means well fitted curve in the direction sought with a large enough effect; inconclusive means small, poorly fitted or top-dose-only effect, or another doubt; inactive means no such curve, though single readings can be large; an effect the other way counts as inactive or inconclusive. Potency means the concentration at half of the fitted maximal effect.

1	CN(CCCNC(=O)C1CCN(S(=O)(=O)N2CCC3(CC2)OCCO3)CC1)Cc1ccccc1
2	COc1cccc2cc(-c3nnc(-c4ccc(Cl)cc4)o3)c(=O)oc12
3	CCOC(=O)c1c(C)[nH]c(C(=O)C(C)Sc2ccc(Cl)cc2)c1C (stereo not given)
4	COc1ccc(C)cc1NC(=O)CCc1c(C)nn(-c2ccc(N3CCOCC3)nn2)c1C
5	Cc1ccc2c(cnn2C(=O)CCCC(=O)NCc2ccc(F)cc2)c1
6	CC(C)C(=O)Nc1nnc(SCC(=O)NC2CCCC2)s1
7	Cc1cccc(OCC(=O)Nc2ccc3nc(C)sc3c2)c1
8	CN(CC(=O)Nc1ccccc1Cl)C(=O)c1ccc(N2C(=O)CCC2=O)cc1

compound no.	1	2	3	4	5	6	7	8
NS1 function inh	2%	/	-40%	/	-8%	11%	-46%	/
Lassa entry inh	0%	30%[46.1 µM]	?	?	/	-6%[46.1 µM]	/	3%
Cruzain inh noDet	-4%	1%	4%	19%	/	/	/	/
Cruzain Triton	2.9%	-0.5%	-7.9%	-2.7%	/	/	/	/
2A StopGo	/	0%	21%	14%	-2%	12%	22%	0%
RE007 growth inh	-13%	/	5%	/	-7%	5%	7%	7%
SARS PLP yeast	-6%	/	-29%	/	-8%	-4%	-2%	1%
MARV entry inh	-8%&-6%	/	?	/	/	5%[46.1 µM]	/	7%

Next section, overlapping the part above by 3 compounds.
6	CC(C)C(=O)Nc1nnc(SCC(=O)NC2CCCC2)s1
7	Cc1cccc(OCC(=O)Nc2ccc3nc(C)sc3c2)c1
8	CN(CC(=O)Nc1ccccc1Cl)C(=O)c1ccc(N2C(=O)CCC2=O)cc1
9	COc1cccc(C(=O)Cn2c(NCCO)nc3ccccc32)c1
10	CCCCc1ccc(C(=O)c2c(N)c(C(=O)Nc3cccc(OC)c3)c3ccccn23)cc1
11	COc1ccc(Cc2nc(-c3ccc(-n4cccc4)cc3)no2)cc1OC
12	CCN(CC)C(=O)c1cn(CCC#N)nc1-c1ccc2c(c1)OCCO2
13	O=C(CN1C(=O)c2cccc3cccc1c23)N1CCN(c2ccc(F)cc2)CC1
14	COc1ccc(-c2onc3ccc(C(=O)/C=C/N(C)C)cc23)cc1
15	COc1cc(SC)ccc1C(=O)NCCCn1ccnc1
16	CC(C)=CC1C(C(=O)Nc2ccc(S(=O)(=O)N3CCOCC3)cc2)C1(C)C (stereo not given)

compound no.	6	7	8	9	10	11	12	13	14	15	16
NS1 function inh	11%	-46%	/	8%[9.22 µM]	/	-32%	/	-4%	6%	12%	/
Lassa entry inh	-6%[46.1 µM]	/	3%	3%	4%[46.1 µM]	/	20%[46.1 µM]	/	14%[46.1 µM]	-43%	?
Cruzain inh noDet	/	/	/	?	-7%	?	/	-12%	/	/	/
Cruzain Triton	/	/	/	-2.0%	-0.3%	-0.1%	/	0.3%	/	/	/
2A StopGo	12%	22%	0%	-27%	0%	?	-2%	-12%	-23%	-4%	-19%
RE007 growth inh	5%	7%	7%	-6%	/	-5%	-2%	-3%	-8%	-15%	9%
SARS PLP yeast	-4%	-2%	1%	2%	/	-7%	-2%	7%	-4%	20%	-8%
MARV entry inh	5%[46.1 µM]	/	7%	-1%	-1%[46.1 µM]	/	-6%[46.1 µM]	-19%	?	-12%	?

Compound profiles, as listed above:
COc1ccc(Cc2nc(-c3ccc(-n4cccc4)cc3)no2)cc1OC across the screens: NS1 function inh: -32%; Lassa entry inh: /; Cruzain inh noDet: ?; Cruzain Triton: -0.1%; 2A StopGo: ?; RE007 growth inh: -5%; SARS PLP yeast: -7%; MARV entry inh: /
CCCCc1ccc(C(=O)c2c(N)c(C(=O)Nc3cccc(OC)c3)c3ccccn23)cc1 across the screens: NS1 function inh: /; Lassa entry inh: 4%[46.1 µM]; Cruzain inh noDet: -7%; Cruzain Triton: -0.3%; 2A StopGo: 0%; RE007 growth inh: /; SARS PLP yeast: /; MARV entry inh: -1%[46.1 µM]

Next section
17	COc1ccc(C2C(C(=O)Nc3ccccc3OC)=C(C)Nc3c(C(=O)Nc4ccccc4)cnn32)c(OC)c1 (stereo not given)
18	COc1ccc(COc2ccsc2C(=O)Nc2ccc(Cl)c(Cl)c2)cc1
19	CN(CC(=O)O)S(=O)(=O)c1ccc2oc3ccccc3c2c1
20	Cc1cc(C)c(C)c(S(=O)(=O)N2CCN(c3ccc(O)cc3)CC2)c1C
21	COc1ccc(CN(C)C(=O)COC(=O)c2c(-c3ccccc3Cl)noc2C)cc1
22	O=C(Nc1ccc(F)cc1)c1oc2ccccc2c1NC(=O)C1CC1
23	O=C(Cc1cccs1)NCc1ccco1
24	CC1=C(C(=O)OCC(Cl)(Cl)Cl)N2C(=O)C(NC(=O)Cc3ccccc3)C2SC1 (stereo not given)

compound no.	17	18	19	20	21	22	23	24
NS1 function inh	/	-19%	20%	/	/	-10%	-2%	-10%
Lassa entry inh	9%[46.1 µM]	-6%	/	?	?	/	20%	16%
Cruzain inh noDet	4%	-21%	/	/	/	/	-4%	/
Cruzain Triton	-7.8%	-11%	/	/	/	/	3.0%	/
2A StopGo	-12%	7%	-12%	18%	?	-27%	7%	?
RE007 growth inh	/	0%	14%	15%	-6%	-4%	-15%	15%
SARS PLP yeast	/	-1%	1%	0%	-1%	1%	19%	-1%
MARV entry inh	/	-24%	/	?	?	/	5%	6%[46.1 µM]

25	CCc1ccc(S(=O)(=O)c2nnn(-c3ccc(F)cc3)c2N)cc1
26	COc1cc(/C=N/NC(=O)c2cccc3ccccc23)cc(OC)c1O
27	COc1cccc(-c2cnc(NCc3ccccc3Cl)n2C)c1
28	CCOc1ccc(CN2CCN(Cc3cccc4nonc34)CC2CCO)cc1 (stereo not given)
29	C=Cn1ccnc1P(=S)(c1c(C)nn(-c2ccccc2)c1C)c1nccn1C=C
30	COc1cc(OC)cc(C(=O)NC(C)CCc2ccccc2)c1 (stereo not given)
31	COc1ccc(S(=O)(=O)N(C)c2ccc(C(=O)NC3CC3)cc2)cc1
32	C/C(=N\NC(=S)NCc1ccccc1)c1ccccc1

compound no.	25	26	27	28	29	30	31	32
NS1 function inh	/	-9%	/	2%	-7%	-3%	8%	-25%
Lassa entry inh	-10%[46.1 µM]	-13%[46.1 µM]	-28%[46.1 µM]	-11%	3%	/	-10%	?
Cruzain inh noDet	-28%	/	1%	/	?	/	/	-12%
Cruzain Triton	-5.8%	/	-0.2%	/	-2.5%	/	/	-12%
2A StopGo	-17%	16%	33%[activator]	-20%	/	-9%	-14%	18%
RE007 growth inh	/	-7%	/	-14%	7%	8%	-4%	-10%
SARS PLP yeast	/	-4%	/	1%	-4%	0%	-1%	-29%
MARV entry inh	?	12%[46.1 µM]	?	-9%[46.1 µM]	5%&-14%	/	3%	?

33	CSc1ccc(-c2sc(Nc3ccccc3)n[n+]2-c2ccc(F)cc2)cc1
34	COc1ccc(CNC(=O)Cn2c(=O)cc(-c3ccccc3)c3c(C)nn(C)c32)cc1
35	CCOC(=O)C1CCC2(CC1)C(C#N)=C(N)Oc1n[nH]c(C)c12 (stereo not given)
36	O=C1CCCCC1(O)Cc1ccc2c(c1)OCO2 (stereo not given)
37	Cc1ccc(S(=O)(=O)C(CNC(=O)C(=O)NCCc2ccc(F)cc2)c2cccs2)cc1 (stereo not given)
38	O=C(O)C1C2c3ccccc3C(O)C1(C(=O)O)c1ccccc12 (stereo not given)
39	Cc1oc2ncnc(N3CCOCC3)c2c1C(=O)Nc1ccc(Br)cc1F
40	Cc1ccc(CNC(=O)c2nc(S(=O)(=O)Cc3ccc(C)cc3)ncc2Cl)cc1

compound no.	33	34	35	36	37	38	39	40
NS1 function inh	3%	/	6%	/	/	/	/	/
Lassa entry inh	/	7%[46.1 µM]	-4%	28%[46.1 µM]	-6%[46.1 µM]	-2%[46.1 µM]	7%[46.1 µM]	?
Cruzain inh noDet	/	?	-2%	/	-13%	/	7%	1%
Cruzain Triton	/	-5.6%	-3.5%	/	-3.3%	/	1.1%	-1.3%
2A StopGo	21%	-3%	-13%	-4%	?	-21%	-9%	-50%
RE007 growth inh	-16%	/	7%	7%	/	-20%	/	/
SARS PLP yeast	-3%	/	6%	/	/	/	/	/
MARV entry inh	/	/	-4%	4%[46.1 µM]	/	13%	-12%[46.1 µM]	?

41	COc1ccc(C(NC(=O)CN2C(=O)NC3(CCc4ccccc43)C2=O)c2ccc(OC)cc2)cc1 (stereo not given)
42	CCN(CC)C1=NC(=[N+](CC)CC)c2ccccc21
43	COc1cc(/C=C2\C(=O)N(c3ccccc3)N=C2C)ccc1Oc1ccc([N+](=O)[O-])cc1[N+](=O)[O-]
44	COc1ccc(NC(=O)Nc2ncccc2C)cc1
45	COc1cccc(NC(=O)C(OC(=O)c2ccc([N+](=O)[O-])o2)c2ccccc2)c1 (stereo not given)
46	O=C1CCC(=O)N1c1ccc(S(=O)(=O)Nc2cccc([N+](=O)[O-])c2)cc1
47	COc1ccc(N2CCN(C(c3ccccc3)c3nnc(-c4ccccc4Cl)o3)CC2)cc1 (stereo not given)
48	Cc1cc(=O)[nH]c(N2CCCC2)n1

compound no.	41	42	43	44	45	46	47	48
NS1 function inh	/	-9%	10%	-8%	-49%	16%	/	-1%
Lassa entry inh	-12%	?	3%	5%	-7%	/	?	14%
Cruzain inh noDet	/	-7%	?	-16%	?	/	-11%	-3%
Cruzain Triton	/	-1.2%	-4.5%	-0.9%	-4.5%	/	-4.4%	2.9%
2A StopGo	0%	?	?	/	39%[activator]	-9%	0%	-1%
RE007 growth inh	-1%	?	/	-1%	8%	0%	/	-1%
SARS PLP yeast	3%	-1%	-21%	2%	-4%	4%	/	0%
MARV entry inh	-15%	?	3%	4%	21%	/	/	30%

Bioassay records deposited in PubChem BioAssay by National Center for Advancing Translational Sciences (NCATS).
